FGF22 binding: binders of human FGF22 protein, primary screen, FGF22 synaptogenesis inhibitor project, biophysical, thermal shift, single point | 340,000 compounds, 1.5% hits | recombinant FGF22 thermal shift, SYPRO orange fluorescence; percent of sucrose octasulfate shift, DMSO zero | calls only at 9.99 µM | AID 651658, 2012;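 active means melting point raised past a set limit in the mean and every replicate; inconclusive means no clear call; three in four hits are not shown here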
Target sequence (Q9HCT0 whole entry, looked up): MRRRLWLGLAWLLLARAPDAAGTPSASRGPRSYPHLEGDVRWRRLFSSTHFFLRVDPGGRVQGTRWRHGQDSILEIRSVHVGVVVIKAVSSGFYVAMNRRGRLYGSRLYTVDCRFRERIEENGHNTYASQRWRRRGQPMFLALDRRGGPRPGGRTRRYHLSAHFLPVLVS
Beta apoptosis: inhibitors of cytokine-induced beta cell apoptosis, primary screen, luminescence; protection from apoptosis, % (no concentration beside the values); INS-1E cytokine-induced death, ATP luminescence, 48 h; percent of positive-control rescue, neutral wells zero; 300,000 compounds, 0.8% hits; AID 435005, 2010;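 active means all replicates at 75% or more, or half of them and the mean; inconclusive means half reach 75% but not the mean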;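 further: 0% = cytokine-treated negative control wells and 100% = positive control rescue; higher means more ATP so stronger rescue from cytokine killing; wells of about 40 µL received 100 nL stock; the first replicate is given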
AF4-AF9 inh: inhibitors of AF4 peptide binding to AF9, primary screen, biochemical, AlphaScreen, biotin-AF4 peptide, FLAG-AF9, single point. inhibition, % at 10 µM. 350,000 compounds, 0.47% hits;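 active means every replicate reaching a set inhibition limit, whatever the replicate mean, cut at about 25% in these data; inconclusive means mean inhibition reaches that limit but some replicates miss it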;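 further: 0% = plate neutral control median and 100% = total signal loss; the record names both 10 and 1 µM as test concentration; the first replicate is given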
A1 inh: caspase 3/7 activation in MEF A1-2A-BIM cells, primary screen, A1 inhibitor project, cell-based, luminescence, HTS | Caspase-Glo 3/7 luminescence, 3 h; percent of clofoctol response, vehicle zero | caspase activation, % (no concentration beside the values) | 330,000 compounds, 0.066% hits;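 active means over half of replicate activation scores above 10%, or exactly half above 10 with the replicate mean above 10; inconclusive means replicate mean below 10 yet half the replicates above 10; inactive means over half of replicates below 10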;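 further: wells of about 30 µL received 50 nL stock; many hits fall short of the cut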
T cruzi inh: inhibitors of intracellular T. cruzi growth, primary screen, luminescence, NIH3T3 host cells; T. cruzi beta-gal in NIH3T3, 90 h; 300,000 compounds, 1.4% hits; inhibition, % (concentration not given with the values);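 active means mean inhibition across valid replicates above about 55%, limit read from the data; inconclusive means mean below that limit but half or more replicates reach it; inactive means mean below it, under half of replicates reach it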;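 further: signal also drops with host cell toxicity which is not excluded here; 0% = plate median of DMSO wells and 100% = zero luminescence signal; higher percent means less beta-gal luminescence so fewer parasites; stock transfer was 50 nL into about 50 µL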
UCH37 DUB inh: inhibitors of human UCH37 deubiquitinase, primary screen, biochemical, Ub-AMC cleavage, fluorescence; 330,000 compounds, 0.33% hits; inhibition, % (no concentration beside the values); purified proteasome/UCH37; AID 588478, 2011;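 active means mean of two replicates above 20%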;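 further: 0% = compound-free wells with enzyme and 100% = wells lacking proteasome; stock transfer was 100 nL into about 20 µL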
Target sequence (Q9Y5K5 whole entry, looked up): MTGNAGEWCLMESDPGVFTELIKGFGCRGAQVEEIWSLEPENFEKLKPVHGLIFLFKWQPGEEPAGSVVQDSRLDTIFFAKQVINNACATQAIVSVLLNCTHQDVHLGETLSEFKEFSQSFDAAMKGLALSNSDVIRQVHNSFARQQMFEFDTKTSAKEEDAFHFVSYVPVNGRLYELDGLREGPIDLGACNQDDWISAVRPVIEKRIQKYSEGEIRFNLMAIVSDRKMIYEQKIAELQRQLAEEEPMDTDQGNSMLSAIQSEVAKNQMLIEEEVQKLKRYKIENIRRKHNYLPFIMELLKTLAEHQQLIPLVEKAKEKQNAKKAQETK
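System: Proteasome-associated human UCH37 deubiquitinase; Input: 0.15 nM proteasome in added enzyme buffer; Also added: Ub-AMC substrate from 1 µM stock; Incubation: 30 min compound-proteasome preincubation then 25 min substrate reaction, room temperature; Detection: fluorescence, ex 355 nm, em 460 nm; Read-out: % inhibition of Ub-AMC cleavage fluorescence; Benchmarks: no-proteasome and no-compound wells.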
Ecoli growth: E. coli growth inhibition, primary screen, OD600. Escherichia coli growth, 23 h; stronger effect = lower value. 330,000 compounds, 0.21% hits. OD600 absorbance (test concentration not listed);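 active means OD600 absorbance below the run mean of sample wells minus 3.6 SD, in any replicate, cut at about 0.56 in these data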;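 further: stock transfer was 300 nL into about 60 µL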
rRNA inh HTS: reduced GFP signal of wild-type E. coli, primary screen, bacterial rRNA inhibitor project, GFP/RFP fluorescence, OD600, single point. E. coli WT GFP vs humanized-ribosome RFP mutants, 24 h; stronger effect = lower value; DMSO median 0, no signal -100. GFP signal change (wild-type ribosome), % (test concentration not listed). 350,000 compounds, 1.6% hits. AID 720706, 2013;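 active means significant combined selectivity score with lowered wild-type GFP, culture density cut under 30%, mutant RFP and density less affected; inactive means any of these conditions unmet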; further: one replicate is shown; some compounds called inactive have numbers as strong as hits
rRNA inh HTS OD600: further read-out of rRNA inh HTS, marked with its call; OD600 change, %; measured here: OD600 growth;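 optical density of the mix in the first replicate; 0 = DMSO median and -100 = no signal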
rRNA inh HTS RFP: recorded beside rRNA inh HTS, whose call it bears; RFP signal change, %; measured here: RFP humanized mutant strains;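 first replicate; 0 = DMSO median and -100 = no signal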
An asterisk follows results filed as active; i = inactive; ? = inconclusive; · = no result given.

Structure	FGF22 binding	Beta apoptosis	AF4-AF9 inh	A1 inh	T cruzi inh	UCH37 DUB inh	Ecoli growth	rRNA inh HTS	rRNA inh HTS OD600	rRNA inh HTS RFP
Cc1nc(-c2ccc(F)cc2)c(CC(=O)Nc2ccc(C)c(S(=O)(=O)N3CCOCC3)c2)s1	i	-8	4.2	1.1	3	·	·	-4	-15	9.5
CCC(C(=O)OCC(=O)Nc1cccc(OC)c1)c1ccccc1 (centres undefined)	i	-7	-0.2	0.3	49	1.6	0.71	-3	2	4.9
CCc1c(O)nc(SCC(=O)N2CCc3cc(OC)c(OC)cc3[C@@H]2C)[nH]c1=O	i	2	0.7	1.3	-8	7.3	0.73	5	8	-0.1
Cc1nc2cc(NC(=O)NCc3ccco3)ccc2o1	·	-10	·	0.2	-4	0.4	0.69	·	·	·
O=C(Cc1ccccc1F)NNC(=O)c1ccncc1	i	1	-1.5	-0.1	1	4.9	0.69	5	11	4.2
CCn1nc(C)c(CNC(=O)c2cc(COc3ccccc3SC)on2)c1C	i	-2	0.8	-1.7	4	3.8	0.68	-2	0	-0.8
CCOc1cc(/C=C2/COc3ccccc3C2=O)ccc1OCC(=O)N(C)C	i	·	0.7	·	·	5.3	0.72	-12	-17	-1.5
CC(=O)OC(C(=O)NCc1ccc(F)cc1)c1ccccn1 (centres undefined)	·	0	·	1.5	-15	-2.7	0.71	·	·	·
CC1(C)C(c2cccs2)=NC(c2ccccc2)N1O (centres undefined)	·	-8	·	-0.1	4	6.0	0.65	·	·	·
O=C(CC(NC(=O)c1ccccc1Cl)c1ccccc1)NC1=NCCS1 (centres undefined)	i	-9	0.0	-0.1	-7	6.1	0.67	6	3	0.2
O=C(CCc1ccc(Oc2cc([N+](=O)[O-])cc([N+](=O)[O-])c2)cc1)N1CCCCC1	·	16	·	0.7	45	3.6	0.68	·	·	·
COc1ccc(C(=O)Nc2cccc(-c3nc4ncccc4o3)c2C)cc1	·	0	·	0.4	4	0.3	·	10	13	0.2
Cc1ccc(-c2nc(CS(=O)CC(=O)NC3CCCCC3)c(C)o2)cc1 (centres undefined)	i	-11	-1.7	-1.3	1	3.7	0.68	-7	-2	-0.7
COCCn1c(=S)[nH]c2cc(C(=O)N3CCCC(C)C3)ccc2c1=O (centres undefined)	i	16	-3.2	-0.4	-14	·	·	-1	1	-3.8
Cc1cccc(C(=O)Nc2nnc(-c3cccnc3)o2)c1	i	-8	0.7	0.9	-1	3.0	0.65	-50	-42	-16
Cc1cccc(NC(=O)c2ccc3c(c2)C(=O)N(c2ccccn2)C3=O)c1C	i	0	-1.0	-0.2	0	2.1	0.66	12	7	0.3
O=C(Cc1ccc(S(=O)(=O)N2CCOCC2)s1)N1CCN(c2cccc(C(F)(F)F)c2)CC1	·	32	·	-0.3	13	4.3	0.7	·	·	·
CCc1cc(C(=O)Cc2cnn(-c3ccccc3)c2)c(O)cc1O	·	-3	·	-0.7	-13	-15	0.66	·	·	·
CC1CCCCN1C(=O)NC1CC(=O)N(c2ccc3c(c2)OCCO3)C1 (centres undefined)	i	0	-4.2	-0.3	-12	-0.5	0.63	4	10	-0.4
C[C@H](NS(=O)(=O)c1ccccc1)C(=O)N1CCN(C(c2ccccc2)c2ccccc2)CC1	i	-1	-4.9	-0.2	·	1.3	0.64	-3	-11	4.9
O=C(NCCCN1CCOCC1)c1coc2ccccc2c1=O	·	-4	·	2.6	11	0.1	0.71	·	·	·
CS(=O)(=O)N1CCC(C(=O)NCC2CCCO2)CC1 (centres undefined)	·	0	·	0.4	-16	-0.6	0.67	·	·	·
CC1=C(C(=O)OC(C)C)C(/C=C/c2ccccc2)NC(=O)N1 (centres undefined)	·	1	·	0.0	-5	3.5	·	·	·	·
CC(=O)c1cccc(NC(=O)C2CCN(S(=O)(=O)c3c(C)n[nH]c3C)CC2)c1	·	0	·	-2.5	1	0.0	0.68	·	·	·
COc1ccccc1S(=O)(=O)Cc1ccc(C(=O)NCc2cccnc2)o1	i	-4	-2.8	0.0	-14	5.2	0.76	11	12	0.2
CN(C)c1ccc(/C=C/C(=O)c2ccccc2)cc1[N+](=O)[O-]	·	-6	·	-2.5	-2	6.8	0.68	·	·	·
Cc1cc(NC(=O)CSc2nnc(C3CC3)n2C)no1	·	0	·	0.9	-8	2.1	0.67	·	·	·
CC(OC(=O)CNC(=O)c1ccc(Cl)c(Cl)c1)C(=O)N1CCOCC1 (centres undefined)	i	-3	-0.7	-0.5	10	3.1	0.68	7	11	0.3
COc1ccc2[nH]c3c(c2c1)CCN1C(=O)N([C@@H](C)C(=O)NCc2ccccc2OC)C(=O)[C@]31C	i	2	5.4	-0.4	24	1.5	0.7	·	·	·
CCCC(=O)C1=C(O)C(C(=O)OC)C(C)(C)CC1=NCCc1ccccc1 (centres undefined)	i	-4	1.7	0.6	-6	4.5	0.68	4	8	0.5
COc1ccc(C(=O)C2CCN(C(=O)c3ccco3)CC2)cc1	·	3	·	-1.4	-11	2.4	0.71	·	·	·
N#CC1=C2SCN(Cc3ccccc3)CN2C(=O)CC1c1cccs1 (centres undefined)	i	-1	5.9	0.4	-1	4.8	0.74	-6	-2	-0.1
COc1cc(C)nn1-c1ccc(Cl)cc1	·	-4	-0.5	0.2	1	2.5	0.69	12	15	0.3
O=C(Cn1cnc2cc([N+](=O)[O-])ccc2c1=O)NC(c1ccccc1)c1ccccc1	i	-2	-4.2	1.3	52	1.0	0.72	-1	5	-1.0
CC(=O)c1ccc(NC(=O)C2(c3ccccc3)CCOCC2)cc1	·	-2	·	0.7	-20	3.3	0.71	·	·	·
Cc1cc(C)cc(-n2ncc3c2CCCC3NC(=O)CCN2Cc3ccccc3C2=O)c1 (centres undefined)	i	-1	1.9	0.6	6	1.2	0.71	-2	-19	9.0
O=C(c1ccc(F)cc1)N1CCN(c2ccc([N+](=O)[O-])c(N3CCOCC3)c2)CC1	·	1	·	1.3	7	11	0.74	·	·	·
O=C(Cc1cccs1)NCCc1ccc(F)cc1	i	·	-4.7	0.5	-8	0.9	0.6	17	12	5.3
C=CCn1c(SCC(=O)N2CCCCC2)nc(O)cc1=O	i	-3	-0.3	0.3	-4	4.0	0.68	11	2	0.0
COc1ccc(NC(=O)c2ccc(Br)c(S(=O)(=O)N3CCOCC3)c2)cc1	i	0	2.6	0.6	8	6.7	0.66	-3	-9	2.6
COc1ccc(N2C(=O)c3cccc4cc(Br)cc(c34)C2=O)cc1	i	-1	-0.2	2.2	-14	1.5	0.67	10	12	0.5
CCCN(CCC)S(=O)(=O)c1ccc(C(=O)N2CCCc3ccccc32)cc1	·	7	·	0.2	15	0.3	0.69	·	·	·
Cc1ccc(C2C(C(=O)c3cc4ccccc4o3)=C(O)C(=O)N2CCN2CCOCC2)o1 (centres undefined)	·	1	·	-0.5	-14	7.4	0.71	·	·	·
Cc1ccc(NC(=O)c2cc(S(=O)(=O)N3CCOCC3)cn2C)cc1F	i	-10	0.5	0.4	-5	5.5	0.72	1	7	-3.3
CC(=NCC1CCCO1)C1=C(O)CC(C)(C)CC1=O (centres undefined)	·	-5	·	1.1	-10	1.0	0.73	·	·	·
COc1ccc(C(CC(=O)N2CCOCC2)C(C)C)cc1 (centres undefined)	·	-6	-3.6	0.3	-24	5.2	0.73	·	·	·
Cc1ccc(N=Cc2sc(O)c3ccccc23)c(C)c1	·	-2	·	-2.2	-32	1.2	0.75	·	·	·
COc1ccc(NC(=O)CSc2ccccc2)cc1S(=O)(=O)N1CCOCC1	i	-1	-1.3	2.0	12	0.5	0.7	0	-8	-2.9
CC1(C(=O)OCC(=O)Nc2ccccc2)CC1(Cl)Cl (centres undefined)	i	-3	-0.4	-1.8	-7	3.0	0.71	-3	-2	-1.8
COC(=O)COc1c(Cl)cc(C(c2c(C)[nH][nH]c2=O)c2c(C)[nH][nH]c2=O)cc1OC	i	-4	-0.2	-0.3	3	4.6	0.68	12	7	-2.3
CCOC(=O)c1cc(S(=O)(=O)Nc2ccc(F)cc2F)cn1C	i	3	-6.6	-0.1	13	0.3	0.62	2	2	1.3
COc1cc(OC)nc(S(C)(=O)=O)n1	·	-5	·	0.6	-1	-13	0.72	·	·	·
CC(C)CCc1noc(CN(CC2CCC2)CC2CCCO2)n1 (centres undefined)	i	6	1.4	0.1	1	-1.3	0.67	-1	-4	1.5
O=C(COC(=O)c1ccc(S(=O)(=O)NCc2ccco2)cc1)NCc1ccc(F)cc1	i	-7	0.3	0.4	·	2.6	0.66	5	-1	2.0
C/C(=N\Nc1cc(C)nc(-c2ccccc2O)n1)c1ccccc1	·	·	16	0.3	?	·	·	7	-8	-0.8
CC(C)(C)NC(=O)c1ccc(NC(=O)c2ccccc2-c2ccccc2C(=O)O)cc1	i	1	-1.1	0.2	-3	3.4	0.71	11	9	3.1
CCOC(=O)c1ccc(NC(=O)NNC(=O)CCc2ccc(OC)cc2)cc1	i	3	-0.6	0.8	4	-2.1	0.71	2	-1	0.7
C=CCc1cccc(OC)c1OCCOCCNCCO	·	-6	·	-0.5	6	3.7	0.71	·	·	·
Brc1ccc(N=Nc2ccc3ccccc3n2)cc1	i	·	3.6	-7.4	-4	2.9	0.61	8	8	-0.7
COc1ccc(C)cc1NC(=O)COC(=O)CCC(=O)c1cccs1	i	-2	-3.6	-0.2	·	0.7	0.64	-1	1	0.0
CCc1ccc(N(CC(=O)Nc2ccc(OC)cc2OC)S(C)(=O)=O)cc1	·	-9	·	0.4	6	-0.5	0.69	·	·	·
Cc1ccccc1NC(=O)c1ccc(CN2CC(=O)N3CCCCC3C2=O)cc1 (centres undefined)	i	1	-3.6	-0.7	-19	4.2	0.7	0	3	-2.5
COc1ccc(C(C)=O)cc1CN1C(=O)NC2(CCCCC2)C1=O	·	-4	·	-0.1	-12	2.1	0.71	·	·	·

Assay outcomes deposited in PubChem BioAssay by several laboratories.

An excerpt; rates above refer to the full screens.
